# HTT prom inh: Primary qHTS for Identification of Small Molecule Inhibitors of Huntingtin Promoter Activity; HEK293 HTT promoter firefly luciferase reporter (activity 0% = vehicle and -100% = no light), 24 h; Potency, µM (series often up to 57.5 µM), inactives show at the top dose activity change, negative = inhibition, most hits filed as inhibitors; 0.93% of 48,000 active; AID 1508623, 2021; active = well fitted inhibition curve with a large enough effect; inconclusive = small, poorly fitted or top-dose-only effect; inactive = no such curve, though single readings can be large or run the other way; also: nearly all actives have a fitted effect of over 50% in size
#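 Quantitative HTS used concentration series of up to 57.5 uM final on HEK293 luciferase reporter cells, 24 h at 37 degrees C. Readout was Dual-Glo firefly luminescence.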
# PMP22 txn prim: Cell-based coincidence reporter assay to measure PMP22 gene transcription in S16 Pmp22-F2sN cells - Primary screen | S16 Pmp22-F2sN Schwann cells (luciferase reporters placed in the Pmp22 gene), FLuc/NLuc coincidence luminescence, 24 h | Potency, µM (highest dose often 57.5 µM), without a hit: top-dose activity change, negative = inhibition, hits mostly inhibitors | 2% of 43,000 active; active = clear falling dose curves in both reporters; inconclusive = both reporters move, but less clearly or upward; inactive = either reporter flat; the % is the NLuc reporter signal; also: % is scaled to controls: 0 for no effect and ±100 for the full control effect; some results filed as inactive show a strong effect at the top dose
#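 Schwann cells carrying the coincidence reporter were exposed to library compounds for 24 h at 37C, then lysed and read for FLuc and, after quenching, NLuc luminescence on a CCD imager.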
# * = called active by the depositor; ? = inconclusive; . = not tested or not shown; [ ] = dose if it differs, or a comment. Potency is read from the fitted curve at half-maximal effect. Some of the compounds tested; the hit share may differ from the screen's.
SMILES	HTT prom inh	PMP22 txn prim
Cc1ccc(CNS(=O)(=O)c2cc3c(cc2Cl)NC(=O)CO3)o1	3%	0%
Cc1ccc(C)c(CSC2=NC(C)(C)Nc3ccccc32)c1	2%	-24%
O=C(Nc1ccccc1Cl)N1CCC2(CC1)Oc1ccccc1C(=O)N2Cc1ccc(F)cc1	?	?
Cc1ccc(Cn2c(C(=O)O)c(CNCc3cccs3)c3ccc(C)cc32)cc1	?	?
COc1ccccc1CNC(=O)c1ccc(N2CCCC2)c(NC(=O)NCc2ccccc2)c1	?	?
COc1ccc(Oc2nc3c(c(=O)n(C)c(=O)n3C)n2Cc2ccccc2Cl)cc1	-23%[11.5 µM]	-11%
Cc1ccccc1CNC(=O)c1cccc(NC(=O)N2CCSc3ncccc32)c1	-36%	-18%
CC1CCN(C(=O)Cn2cc(SCC(=O)NCc3ccccc3)c3ccccc32)CC1	-25%	?
COc1ccc(CNC(=O)Cn2nc(N3CCN(c4ccccc4)CC3)ccc2=O)c(OC)c1	4%	-27%
Oc1ccc(Cl)cc1Nc1nc2ccccc2n2cnnc12	-14%	-1%
CCOc1ccccc1NC(=O)c1nc(S(=O)(=O)Cc2cccc(C)c2)ncc1Cl	6%	1.7µM*
CCC(C)n1c(=N)c(C(=O)NCc2ccccc2)cc2c(=O)n3cc(C)ccc3nc21 (configuration not stated)	-2%	?
CN(C(=O)c1c[nH]c2ccc(S(=O)(=O)Nc3cccc(C(F)(F)F)c3)cc2c1=O)C1CCCCC1	-18%	9%
Cc1nn2c(=O)cc(COC(=O)c3ccccc3NC(=O)C(C)Oc3ccccc3)nc2s1 (configuration not stated)	-17%	-65%
CCc1cccc(C)c1Nc1c(-c2cccc(O)c2)nc2cnccn12	-18%	?
COc1cccc(-n2c(SCC(=O)N3CCCCC3)nc3c([nH]c4ccccc43)c2=O)c1	-9%	-3%
CSc1cccc(NC(=O)CN2C(=O)COc3ccc(S(=O)(=O)N4CCC(C)CC4)cc32)c1	-14%	-4%
COc1ccc(N(CC(=O)NCc2ccccc2Cl)S(=O)(=O)c2c(C)nn(C)c2C)cc1	-13%	?
COc1ccc(Nc2cc(C(=O)NCCc3ccc(C)cc3)c3ccccc3n2)c(OC)c1	17%	?
COc1ccc(-c2cc3ccc(O)c(CN4CCOCC4)c3oc2=O)cc1	6%	-8%
COc1cc(C(C)C)c2c(c1)S(=O)(=O)N(COc1cc(=O)n3cccc(OCCN4CCCCC4)c3n1)C2=O	-17%	.
CCOc1ccc(CNCc2c(C(=O)O)n(Cc3ccc(C)cc3)c3cc(C)ccc23)cc1	?	?
COc1ccc2c(Sc3ccc(C)cc3)c(C(=O)NCc3ccc(F)cc3)[nH]c2c1	-7%	-33%
COc1ccccc1NC(=O)c1cnn(-c2ccccc2)c1-n1cccc1	-1%	-8%
COCCCNC(=O)C1CCN(c2nnc(-n3cccc3CNc3ccc(C)cc3)s2)CC1	?	-24%
O=C(CCC(=O)N1CC2CCCN2c2ccccc21)NCc1ccc(F)cc1 (configuration not stated)	-7%	-15%
Cc1ccc(CNC(=O)c2nnc(Cc3ccc(Cl)cc3)o2)cc1	-2%	-6%
COc1ccc(NC(=O)Cn2c(SCc3ccc(F)cc3)nc3cccnc32)cc1OC	?	-61%
CCc1cc(S(=O)(=O)O)c2cc(C(C)C)cccc1-2	-2%	.
COc1ccccc1N1CCN(C(=O)c2nn(C)c3c2CS(=O)(=O)c2ccccc2-3)CC1	-7%	32%
CC12CN3CC(c4ccccc4)(CN(C1)C3c1ccc(Cl)cc1)C2=O (configuration not stated)	-25%	16%
Clc1ccc2c(c1)-c1c(cnc3cc(-c4ccccc4)nn13)CO2	-4%	-29%
CC(O)C(=O)O (configuration not stated)	7%	.
Cc1c(C(=O)Nc2ccc(F)cc2F)oc2c1-c1nn(Cc3c(F)cccc3Cl)cc1CC2	-11%	-109%
O=C(Cn1c(=O)n(CC2CCC(C(=O)NCCc3ccccc3)CC2)c(=O)c2ccccc21)Nc1ccccc1 (configuration not stated)	-3%	?
Cc1nn2c(=O)cc(COC(=O)c3cccc(NC(=O)c4ccc(C(C)(C)C)cc4)c3)nc2s1	-14%	-8%

# Reprinted at random: 4 entries already listed, in no set order.
SMILES	HTT prom inh	PMP22 txn prim
COc1ccc(Oc2nc3c(c(=O)n(C)c(=O)n3C)n2Cc2ccccc2Cl)cc1	-23%[11.5 µM]	-11%
Cc1ccc(CNC(=O)c2nnc(Cc3ccc(Cl)cc3)o2)cc1	-2%	-6%
COc1ccc(Nc2cc(C(=O)NCCc3ccc(C)cc3)c3ccccc3n2)c(OC)c1	17%	?
COc1ccc(NC(=O)Cn2c(SCc3ccc(F)cc3)nc3cccnc32)cc1OC	?	-61%

# Following part
SMILES	HTT prom inh	PMP22 txn prim
COC(=O)c1ccccc1NC(=O)CSc1nc2ccccc2nc1Cc1ccc(F)cc1	-2%	-11%
Clc1cccc(-n2ncc3c(Nc4ccc5c(c4)OCCO5)ncnc32)c1	?	-76%
COc1ccc(CC(=O)Nc2ccc3nc(Nc4cccc(Cl)c4)cc(C)c3c2)cc1OC	?	?
Cc1ccc(Cl)cc1N1CCN(C(=O)c2cc3ccc4cccnc4c3[nH]2)CC1	11%	-14%
CSc1nn(CC(=O)Nc2cc(C)ccc2C)c(N)c1S(=O)(=O)c1ccccc1	?	-29%
COc1ccc(NC(=O)Cn2nnnc2-c2ccccc2F)c(C)c1	-5%	1%
CCc1nc2cccnc2n1-c1ccc(CC(=O)Nc2cccc(C)c2C)cc1	?	?
COc1ccc(C2C=C(c3ccc(Cl)cc3)Nc3nc(-c4ccc(Cl)cc4)nn32)cc1 (configuration not stated)	25µM*	?
CCOc1ccccc1CNCCSc1nnnn1C	-8%	-24%
Cc1cc(=O)n2nc(N3CCC(C(=O)Nc4ccc(C(C)C)cc4)CC3)sc2n1	?	?
COc1cccc(C(c2sc3nc(-c4ccco4)nn3c2O)N2CCC(C)CC2)c1 (configuration not stated)	-15%	18%
CCC(=O)N1CCc2cc(S(=O)(=O)CCC(=O)N3CCN(c4cc(C)ccc4C)CC3)ccc21	4%	?
CC(=O)c1ccc(NC(=O)CSc2cn(CC(=O)N3CCCCCC3)c3ccccc23)cc1	?	?
Cc1ccc2c(=O)c(C(=O)c3ccc(F)cc3)cn(CC(=O)Nc3ccc4c(c3)OCCO4)c2n1	?	-1%
Cc1ccc(C2c3c(-c4ccccc4O)n[nH]c3C(=O)N2CCc2ccccc2)cc1 (configuration not stated)	?	?
O=C1CSC2(C(=O)N(Cc3cccc(F)c3)c3ccccc32)N1c1cccc(C(F)(F)F)c1 (configuration not stated)	?	?
CN(Cc1ccccc1)S(=O)(=O)c1ccc2[nH]c3c(c2c1)CCCCC3	?	?
O=C(NCCc1ccccc1)c1nn(-c2ccccc2Cl)nc1CO	-25%	-20%
CCN(CC)CCCN(c1ccccc1)C1Cc2ccccc2C1	-16%	.
CCOC(=O)C(CC)n1nc(C)n2c(cc3occc32)c1=O (configuration not stated)	-17%	-11%
COc1ccccc1NC(=O)c1cc(S(=O)(=O)N(C)C2CCCCC2)ccc1F	?	?
Cc1ccc(C)c(CSc2cn(CCNC(=O)c3ccccc3F)c3ccccc23)c1	?	?
COc1ccccc1C(=O)Nc1ccc(S(=O)(=O)Nc2nc(C)cc(C)n2)cc1	-20%[11.5 µM]	67%
CCOC(=O)C1CCC(CN(Cc2ccc(Cl)cc2)S(=O)(=O)c2ccc(Br)cc2)CC1 (configuration not stated)	14%	-5%

# Entries of single compounds, quoted from the list. Order of screens: HTT prom inh	PMP22 txn prim
# COc1ccccc1NC(=O)c1cc(S(=O)(=O)N(C)C2CCCCC2)ccc1F across the screens: ?	?
# COc1ccccc1C(=O)Nc1ccc(S(=O)(=O)Nc2nc(C)cc(C)n2)cc1 across the screens: -20%[11.5 µM]	67%

# (continued)
SMILES	HTT prom inh	PMP22 txn prim
Cc1cc2nc(-c3cccc(NC(=O)CSc4ccc(Cl)cc4)c3)oc2cc1C	71%[activator]	-58%
CCOc1ccc(C2CC(=O)c3c([nH]c(C(=O)OCC4CCCCC4)c3C)C2)cc1 (configuration not stated)	-1%	-9%
Cc1ccc(Cc2cnc(NC(=O)C3Cc4ccc(C)cc4C(=O)O3)s2)cc1 (configuration not stated)	3%	7%
C[C@H](NC(=O)[C@@H](O)c1cc(F)cc(F)c1)C(=O)N[C@@H]1C(=O)N(C)c2ccccc2-c2ccccc21	-3%	.
O=C(COc1ccc(F)cc1)Nc1ccccc1OCc1cc(=O)n2ccccc2n1	3%	-17%
O=C(Nc1cccc(Cl)c1)N1CCC(CN2CCOCC2)CC1	-14%	-10%
CCOC(=O)c1sc2ccccc2c1S(=O)(=O)N1CCN(c2cccc(C)c2)C(C)C1 (configuration not stated)	-19%	-4%
CCCCCn1c(=O)[nH]c2cc(C(=O)Nc3cc(C)cc(C)c3)ccc2c1=O	-3%	2%
CCOc1ccc(-c2cc3c(=O)n(CC(=O)NCc4ccc(Cl)cc4)ccn3n2)cc1	8%	-13%
CC(C)c1ccc(-c2nc(C(N)=O)c3c(n2)n(-c2ccc4c(c2)OCO4)c(=O)n3C)cc1	-7%	?
COC(=O)[C@H]1[C@H]2C[C@@H]3c4[nH]c5cc(OC)ccc5c4CCN3C[C@H]2C[C@@H](OC(=O)/C=C/c2ccc(O)c(OC)c2)[C@@H]1OC	-30%	.
Cc1ccc(S(=O)(=O)c2c(Nc3cc(F)ccc3F)sc(C(=O)c3ccc(F)cc3)c2N)cc1	?	-2%
Cc1cc(Nc2cccc(Cl)c2)nc2ccc(NC(=O)c3cncc(Br)c3)cc12	?	?
CCOc1ccc(N(CC)S(=O)(=O)N2CCCC(C(=O)NCc3ccccc3Cl)C2)cc1 (configuration not stated)	?	?
Cn1c(=O)c(C(=O)O)nn(-c2ccccc2)c1=O	-2%	-28%
CCCCN(CCCC)CCCNC(=O)c1ccc2nc(N3CCCCC3)sc2c1	-23%	8%
COc1ccc(N2CCN(C(CNC(=O)c3c(F)cccc3F)c3ccc4c(c3)OCO4)CC2)cc1 (configuration not stated)	-20%	1%
CCc1nc2ccc(C(=O)N3CCN(c4ccccc4)CC3)cc2nc1CC	-17%	10%
COc1cc2c(cc1OC)C(COc1cc(C)cc(C)c1)N(C(=O)C(C)(C)C)CC2 (configuration not stated)	-17%	18%
CCOC(=O)Cc1ccc(NC(=O)N2CCOc3ccc(C)cc32)cc1	0%	-16%
Cc1cccc(C(=O)Nc2cccc(C(=O)OCc3cc(=O)n4nc(C5CC5)sc4n3)c2)c1	6%	-15%
CCn1nc(C)c(CCN(C)C(=O)Nc2ccc(C)c(Cl)c2)c1C	0%	52%
CCOC(=O)C1CCCN(CCC(=O)Nc2ccc(OC)cc2OC)C1 (configuration not stated)	0%	8%
COc1ccc(-c2cc(-c3ccccc3)nc(SCC(=O)Nc3ccccc3C)c2C#N)cc1	-12%	?
CCc1ccc(NCc2cc3ccc(OC)cc3n(CC(=O)Nc3ccccc3C)c2=O)cc1	-24%	?
CCOC(=O)c1cc2c(=O)n3ccccc3nc2n(CC(C)C)c1=NC(=O)c1cc2ccccc2o1	-15%	-12%
CCOC(=O)C1CCCN(Cc2cn3c(-c4cccc(Br)c4)nnc3s2)C1 (configuration not stated)	?	-25%
Cc1cccc(-c2c3c(=O)n(C)c(=O)n(C)c3c3c(C)nc4ccccc4n23)c1	-10%[11.5 µM]	13µM*
CCCC(C(=O)OCCN(CC)CC)(c1ccccc1)c1ccccc1	-24%	.
COc1ccc(C(=O)Nc2cc(NC(=O)c3ccco3)ccc2OC)cc1Cl	-4%	-25%
COc1ccc(-c2nn3c(=O)cc(CN4CCN(C(=O)/C=C/c5ccccc5)CC4)nc3s2)cc1	-15%	8%
O=C(c1ccccc1)c1ccc2nc(N3CCN(c4ccc(F)cc4)CC3)c3nncn3c2c1	-5%	?
O=C(NCc1ccc(F)cc1)C(=O)Nc1ccc2nc3n(c(=O)c2c1)CCCCC3	0%	-2%
COc1cccc(NC(=O)Cn2c(=O)n(CCc3cccc(C)c3)c(=O)c3ccccc32)c1	-4%	-23%
CCOC(=O)C1CCN(C(=O)c2ccc3c(=O)n4nc(Nc5ccccc5)sc4nc3c2)CC1	-34%	5.3µM*
Cc1ccc(CNc2oc(-c3ccc(COc4ccc(C)cc4)o3)nc2C#N)cc1	?	?
Cc1cccn2c(=O)cc(COc3ccc(NC(=O)COc4ccc(F)cc4)cc3)nc12	-6%	-30%
CC1=C(C(N)=O)C(c2cccc(F)c2)n2nc(SCc3ccccc3)nc2N1 (configuration not stated)	-3%	5%
CCc1ccccc1NS(=O)(=O)c1ccc2c(c1)CCCN2C(=O)C1CCC1	?	?
COc1ccc(Cn2ccnc2SCC(=O)Nc2ccc3c(c2)OCO3)cc1	-23%	-13%
CCCSc1ncc(Cl)c(C(=O)NCc2ccc(C)cc2)n1	-28%	7%
O=C(Nc1ccc(Br)cc1)c1ccc(F)c(S(=O)(=O)N2CCCc3ccccc32)c1	2.2µM*	?

# Bioassay records: PubChem BioAssay, National Center for Advancing Translational Sciences (NCATS)
